# Bioassay records deposited in PubChem BioAssay by several laboratories.
# eIF4H inh = inhibitors of RNA binding by human eIF4H | 290,000 tested, 0.94% active | inhibition, % at 35 µM | Q15056 | eIF4H fluorescence polarization binding assay;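 active = 50% or more with normal probe brightness, or confirmed in later tests; inconclusive = above 50% with abnormal brightness, or retests that disagree; inactive = below 50% or failed in later tests; about a fifth of its hits are not listed in these tables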;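 also: calls also rest on retests at 20 µM and on dose response follow-up; 0% = protein and probe with vehicle and 100% = probe without protein; strong numbers were not always called active; many hits fall short of the cut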
# MT1-MMP act inh = MT1-MMP (human) activation inhibition. P50281. HT1080 RFP-PRO-GFP cells, GFP/RFP ratio fluorescence, overnight; percent of plate control window, DMSO zero. GFP/RFP ratio change, % at 20 µM. 360,000 tested, 0.061% active. AID 651647;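 active = GFP/RFP ratio change of at least 30% with cell ATP level not reduced by more than half and red fluorescence within 50% of control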; also: strong numbers were not always called active
#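 Test system: HT1080 RFP-PRO-GFP cells; Benchmarks: DMSO and RFP-L50D-GFP cell wells; Timing: cells overnight before dosing, compound overnight, 37 °C, 5% CO2; Compound: one 20 µM compound dose with 1% DMSO; Read-out: GFP/RFP fluorescence ratio.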
# Rce1 inhib = blocks yeast Ras-converting enzyme; Q03530; yeast membranes, quenched prenylated peptide cleavage fluorescence; calls only; 290,000 tested, 0.27% active; AID 2563;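 active = fall in fluorescence gain of 50% or more versus controls, with final raw signal at or below 3038400; inconclusive = same 50% fall but final raw signal above 3038400; inactive = fall in fluorescence gain under 50%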;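 also: plate controls were neutral control wells for no effect and wells lacking membranes for full effect; tested at 10 µM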
# PABP polyA inh = blocks human PABP binding to poly(A) RNA. fluorescence polarization. inhibition, % at 35 µM. 290,000 tested, 1% active;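 active = 50% or more with normal probe brightness, or confirmed in later tests; inconclusive = above 50% with abnormal brightness, or retests that disagree; inactive = below 50% or failed in later tests; about a fifth of its hits are not listed in these tables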;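 also: calls also rest on retests at 20 µM and on dose response follow-up; controls were probe without protein and protein plus probe with vehicle; some compounds called inactive have numbers as strong as hits; many hits fall short of the cut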
# Target sequence (P11940 whole entry, looked up): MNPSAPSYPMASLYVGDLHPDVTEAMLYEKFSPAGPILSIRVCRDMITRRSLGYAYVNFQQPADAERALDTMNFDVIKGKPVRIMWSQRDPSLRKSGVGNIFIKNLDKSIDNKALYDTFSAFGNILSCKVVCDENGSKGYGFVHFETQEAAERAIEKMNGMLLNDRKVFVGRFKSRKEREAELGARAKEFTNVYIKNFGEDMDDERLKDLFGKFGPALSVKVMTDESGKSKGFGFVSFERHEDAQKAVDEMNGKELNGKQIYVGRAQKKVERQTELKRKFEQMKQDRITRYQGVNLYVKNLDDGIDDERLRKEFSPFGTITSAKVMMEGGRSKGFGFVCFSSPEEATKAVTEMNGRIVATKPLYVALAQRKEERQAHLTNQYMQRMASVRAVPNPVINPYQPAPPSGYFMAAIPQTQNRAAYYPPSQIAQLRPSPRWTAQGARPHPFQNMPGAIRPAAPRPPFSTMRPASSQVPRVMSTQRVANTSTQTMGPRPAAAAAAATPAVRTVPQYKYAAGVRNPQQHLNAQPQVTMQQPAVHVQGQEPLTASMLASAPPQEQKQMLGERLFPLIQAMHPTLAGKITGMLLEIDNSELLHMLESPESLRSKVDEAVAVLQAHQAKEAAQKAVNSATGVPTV
# UUG fidelity = yeast start codon fidelity modulation; activity score, % at 18.7 µM; AID 602363; 350,000 tested, 0.13% active; S. cerevisiae UUG-firefly luciferase reporter, luminescence/redox ratio;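 active = replicate mean at a twofold rise or more, about +100% in these data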;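 also: firefly luciferase made from a UUG start codon reports start codon fidelity; reporter light over untreated wells divided by growth signal over untreated wells; some hits fall short of that in this replicate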
# CSC inhib = cancer stem cell inhibition | inhibition, % at 7.5 µM | 300,000 tested, 1.1% active | cancer stem cell-like cells viability, luminescence;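 active = mean at 75% or more and at least half the replicates too; inconclusive = mean and replicates disagree; tested in HMLE shEcad cells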;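 also: 0% = median of negative and 100% = median of positive control wells; the first replicate is given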
# HIV Env fusion = inhibitors of HIV Env-mediated cell fusion | HeLa-JRFL Env/CEM21 cell fusion, luciferase | inhibition, % at 12.3 µM | 360,000 tested, 1.1% active | AID 651610;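 active = mean replicate inhibition score of at least 50 and every replicate individually at or above 50; inconclusive = only one of the two criteria met; inactive = mean below 50 and not all replicates reaching 50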;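 also: 0% = plate neutral controls and 100% = maraviroc near 300 nM; one replicate is shown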
# eIF4H inh retest = further read-out of eIF4H inh, marked with its call; inhibition, %; compound at 20 µM; confirmation average;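 mean of two retest wells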
# PABP polyA inh retest = also measured in PABP polyA inh; calls as there; inhibition, %; compound at 20 µM; confirmation repeats;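 mean of two retest wells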
# MT1-MMP act inh RFP = second read-out of MT1-MMP act inh, no call of its own (marks repeat the call); RFP signal change, %; measured here: RFP expression control read;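 0 = vehicle wells; hits needed this value within 50% of zero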
# The depositor's hits bear a star; i = inactive; u = inconclusive; x = not tested or not shown; & = joins results of further samples; [ ] = dose if it differs, or a comment. Hits appear at their usual frequency. Share with any hit: about 2.9%.
SMILES,eIF4H inh,MT1-MMP act inh,MT1-MMP act inh RFP,Rce1 inhib,PABP polyA inh,UUG fidelity,CSC inhib,HIV Env fusion,others
COc1ccc(C(=O)NCc2nnc(SCC(=O)Nc3nc4ccccc4s3)o2)cc1OC,0.1,4.6,2.0,i,0.5,-21.7,-9.6,6.4,
CC(C)CNS(=O)(=O)c1ccc(CCC(=O)NCc2ccco2)cc1,-5.4,-0.9,-5.7,i,33.1,-1.8,-6.6,-250.4,
Cn1c(-c2sccc2OCc2ccc(Cl)cc2Cl)n[nH]c1=S,2.0,-3.9,-7.0,x,-10.4,x,-0.8,15.5,
O=C(NCCc1ccccc1)c1cccc(N2C(=O)C3CC=CCC3C2=O)c1 (stereo unspecified),-6.0,1.5,1.4,i,-9.3,x,x,-0.4,
O=C(Nc1ccc(Br)c(Cl)c1)C1CC1,-15.2,7.5,2.3,i,-12.3,-11.6,-6.7,-21.6,
CCOc1ccc(NC(=S)N2CCC(N(C)CC3CCCO3)CC2)cc1 (stereo unspecified),8.6,2.3,2.7,i,-4.1,x,-20.2,13.6,
CCN(c1ccccc1C)S(=O)(=O)c1nnc(NC(=O)c2ccco2)s1,x,3.4,0.3,i,x,-7.1,21.0,-0.3,
CCCCC1CC(CSC(=N)N)OC1=O (stereo unspecified),-4.0,1.4,0.6,i,-0.9,x,-5.7,-10.4,
NC(=O)c1cc(N2C(=O)C3CC=CCC3C2=O)ccc1N1CCCCC1 (stereo unspecified),-4.3,5.2,-1.9,i,-5.8,-6.5,-6.6,-2.1,
CCCn1c(N2CCN(S(=O)(=O)Cc3ccccc3)CC2)nc2ccccc21,-6.5,0.3,-5.9,i,6.3,4.1,33.9,-35.3,
CCCNC(=O)C(Cc1ccc(C(F)(F)P(=O)(OCC)OCC)cc1)NC(=O)c1ccc(C#N)cc1 (stereo unspecified),x,1.3,2.1,x,x,-16.4,-34.0,-34.7,
Cc1cccc(N/N=C(\C(N)=O)C2=NC(C)(C)Cc3ccccc32)c1,6.2,-2.6,-12.1,i,-7.5,x,76.3*,29.9,

# In the list so far, these have a furan ring, fused or not.
SMILES,eIF4H inh,MT1-MMP act inh,MT1-MMP act inh RFP,Rce1 inhib,PABP polyA inh,UUG fidelity,CSC inhib,HIV Env fusion,others
CC(C)CNS(=O)(=O)c1ccc(CCC(=O)NCc2ccco2)cc1,-5.4,-0.9,-5.7,i,33.1,-1.8,-6.6,-250.4,
CCN(c1ccccc1C)S(=O)(=O)c1nnc(NC(=O)c2ccco2)s1,x,3.4,0.3,i,x,-7.1,21.0,-0.3,

# The results go on:
SMILES,eIF4H inh,MT1-MMP act inh,MT1-MMP act inh RFP,Rce1 inhib,PABP polyA inh,UUG fidelity,CSC inhib,HIV Env fusion,others
Clc1ccc(-c2csc(-c3ccno3)n2)cc1,3.7,-3.6,-3.0,i,12.6,x,5.3,-25.6,
CCN(C(=O)COC(=O)CCCOc1ccccc1)c1c(N)n(Cc2ccccc2)c(=O)[nH]c1=O,x,0.5,-0.1,x,x,-3.8,-3.7,x,
Cc1ccc(NC(=O)CSC2=C(C#N)C(c3ccc4c(c3)OCO4)CC(=O)N2)cc1C (stereo unspecified),-5.0,0.5,-1.2,i,-6.2,-8.7,-5.8,x,
CC1CCCC(C)N1CCCNC(=O)CN1C(=O)c2cccnc2Oc2ccc(Cl)cc21 (stereo unspecified),17.3,-0.9,-0.9,i,15.6,-7.8,x,6.0,
CCC(=O)N(CCC(Cc1ccccc1)c1ccco1)Cc1ccco1 (stereo unspecified),3.6,-5.6,-11.0,i,6.3,0.3,x,28.5,
CCn1c(SCC(=O)Nc2cc(Cl)ccc2OC)nnc1C1CC1,7.2,0.7,-0.3,i,2.3,-12.7,-6.8,0.1,
CC(C)C(NC(=O)c1ccco1)C(=O)OCC(=O)N1CC(=O)Nc2ccccc21 (stereo unspecified),x,7.0,2.4,x,x,-10.1,x,0.0,
Cc1noc(NS(=O)(=O)c2ccc(NC(=O)c3nn(-c4ccccc4)ccc3=O)cc2)c1C,-7.2,-0.9,2.2,i,12.3,-21.2,-10.9,-2.5,
CC(=O)c1c(C)[nH]c(C(=O)COC(=O)CN2C(=O)C3CCCCC3C2=O)c1C (stereo unspecified),x,-0.4,0.2,x,x,-6.7,5.8,x,
CCOc1ccc(NC(=O)CCn2ccnc2)cc1,-6.9,1.1,2.6,i,7.1,-14.5,x,-10.2,
O=C(N/N=C/c1cc([N+](=O)[O-])ccc1O)c1cccc2cc[nH]c12,10.1,22.0,-1.9,i,-3.4,-21.7,87.9*,27.9,
Cc1cc(C(=O)Nc2ccc(C(=O)O)cc2)c(-c2ccccc2)o1,-4.2,1.2,-0.3,i,7.9,-7.7,8.5,x,
Cc1cccc(NC(=O)CSCC(=O)Nc2sccc2C#N)c1,x,-3.8,2.2,i,x,-41.6,-19.4,x,
O=C(Cc1ccc(Cl)c(Cl)c1)N1CCOCC1,-8.7,-0.6,-2.5,i,-0.2,-16.6,-13.4,-6.3,
CN1CCN(CCOc2ccc(Cc3ccccc3)cc2)CC1,-3.5,0.6,4.4,i,5.1,-11.5,50.8,-9.7,
COc1ccccc1NC(=O)C(C)OC(=O)COc1cccc2c1OC(C)(C)C2 (stereo unspecified),x,3.2,-1.5,i,x,0.4,-0.6,11.9,
CC(C)(C)NC(=O)CN(C(=O)CS(=O)CC(=O)Nc1ccc(F)cc1)c1ccccc1F (stereo unspecified),-10.1,-0.3,2.1,i,2.3,x,-2.9,5.8,
COc1ccc(-c2oc3ccc(-c4ccc5c(c4)OCO5)cc3c2C#CC2(O)CCCCC2)cc1,x,15.0,5.7,i,x,-15.8,19.6,-8.0,
COCCn1c(C2CCCCC2)nc2sc3ccccc3c(=O)c2c1=O,-10.7,-4.0,-6.0,i,7.5,-10.9,69.6,-34.0,
Nc1ccc(S(=O)(=O)N2CCc3ccccc32)cc1,-0.5,0.1,0.8,i,-3.8,-8.9,-6.5,-6.3,
Cn1nc(-c2ccccc2)cc1NC(=O)Nc1ccc(C(C)(C)C)cc1,-3.3,1.2,1.2,i,0.5,x,62.1,0.0,
COCCNc1nc(Oc2cccc3ccccc23)c2sccc2n1,x,3.6,-1.4,x,x,-7.8,x,-3.8,
Cc1ccc(NC(=O)CCCCCCCCCCC2COCCO2)c(C)c1 (stereo unspecified),-5.0,-11.7,-1.3,i,9.0,x,39.0,x,
CCN(CC)c1ccc(C(=O)Nc2cccc(F)c2)cc1,-5.8,0.1,-0.3,i,-0.2,-16.0,-5.2,x,
Cc1ccc(S(=O)(=O)N2CCN(c3ccc(C(F)(F)F)cc3[N+](=O)[O-])CC2)cc1,-1.7,-10.1,-26.1,i,6.1,4.9,x,u,
CC(C)[C@H](NS(=O)(=O)c1ccc2c(c1)OCCO2)C(=O)OCC(=O)Nc1ccccc1,-1.2,7.2,4.9,i,-8.2,25.2,-7.0,x,
C[C@H](CO)N1C[C@H](C)[C@@H](CN(C)S(=O)(=O)c2cccs2)Oc2ccc(NC(=O)NC3CCCCC3)cc2C1=O,x,-5.5,-2.7,x,x,0.0&1.7,-10.3,-5.7[16.7 µM],
CCOC(=O)C1CCCN(CCC(=O)Nc2cc(C)cc(C)c2)C1 (stereo unspecified),-4.1,-3.3,-0.3,i,24.5,x,-7.2,30.9,
COc1ccccc1C(OC(=O)c1ccco1)C(=O)NC(C)(C)C (stereo unspecified),1.8,2.0,5.2,x,3.7,-2.8,-1.6,-71.0,
[O-]/C(=C(\C(=S)Nc1ccc(SC(F)F)cc1)[n+]1ccccc1)c1ccc(Cl)cc1Cl,1.6,-2.2,-14.0,i,5.3,-2.1,6.8,31.0,
CC(=O)Nc1cccc(OCC(=O)NC(C)c2ccc3ccccc3c2)c1 (stereo unspecified),8.6,2.1,2.4,i,6.2,12.8,-2.1,15.7,
Cc1oc(-c2ccccc2)nc1CS(=O)CC(=O)NC1CCCC1 (stereo unspecified),-0.6,-2.2,1.7,i,5.5,-9.4,x,10.9,
COc1ccc(C(=O)NC2CCSc3ccccc32)cc1 (stereo unspecified),5.4,2.4,6.7,i,16.4,-6.3,-1.1,-0.3,
COc1ccc(N2CCN(CCCNC(=O)CN3CCN(Cc4ccccc4C)C3=O)CC2)cc1,-9.6,1.3,-1.7,i,0.1,-5.8,-3.6,x,
CC1CCCCC1NC(=O)CSc1nnc(COc2ccccc2Cl)o1 (stereo unspecified),0.6,-0.8,4.7,i,-7.7,-10.7,-4.6,5.1,
O=[N+]([O-])C(=c1ccc2c(c1)N1C3=C(CCCC3)CC3CCCCC31N=2)[N+](=O)[O-] (stereo unspecified),68.5,x,x,i,25.1,x,2.6,x,eIF4H inh retest=47.1;PABP polyA inh retest=39.9
CC(=O)Nc1ccc(S(=O)(=O)N(C)CC(=O)OC(C)C(=O)N(C)C2CCCCC2)cc1 (stereo unspecified),-14.2,-3.7,-0.6,i,0.6,-6.1,-20.9,14.9,
Cc1ccc(/C=N/NC(=O)Cn2nc(C)c(Br)c2C)o1,-2.0,3.0,1.4,i,-7.2,1.8,-13.0,-38.7,
CN(C)c1ccc(CNC(=O)CCS(=O)(=O)c2ccc3c(c2)oc(=O)n3C)cc1,-7.3,-1.4,-1.0,i,9.7,1.0,4.9,1.6,
CCC(=O)N(Cc1ccco1)Cc1cc2cccc(C)c2n2nnnc12,0.3,-0.1,-0.2,i,16.6,x,-2.9,-2.3,
Cc1ccccc1CNC(=O)C(=O)NCC1OCCCN1S(=O)(=O)c1cccs1 (stereo unspecified),-7.4,0.6,-1.7,i,-10.0,-17.5,3.7,-1.1,
O=C(NCc1ccco1)C1CCN(S(=O)(=O)c2ccccc2C(F)(F)F)CC1,x,-1.7,1.2,x,x,-7.9,-10.3,x,
C[C@H](CO)N1C[C@H](C)[C@@H](CN(C)Cc2ccc(-c3ccccc3)cc2)Oc2ncc(C#C[C@@H](C)O)cc2C1=O,x,4.4,9.3,x,x,6.3&23.4,x,10.9,
CCN1CCN(CCOc2ccc(Cl)cc2)CC1,13.8,-0.4,-0.4,i,9.9,-1.4,-4.5,7.7,
CCOc1ccccc1CNc1ccc(O)cc1,51.0,17.5,14.2,i,35.9*,x,x,6.6,eIF4H inh retest=-3.4;PABP polyA inh retest=103.6*
COc1ccc(N(C(=O)CNC(=O)c2ccco2)C(C(=O)NCC2CCCO2)c2ccccc2)cc1OC (stereo unspecified),-14.5,-1.8,-1.5,i,-1.5,-1.0,-5.0,-0.4,
O=C1CC(N2CCN(C/C=C/c3ccccc3)CC2)C(=O)N1Cc1cccs1 (stereo unspecified),-2.3,4.8,2.5,i,3.6,-13.3,-7.9,x,
Cc1ccc2nc3c(nc2c1C)CCCC3,-8.4,-1.5,-0.8,i,6.3,-19.0,6.1,0.3,
CCN(C(=O)c1cc(Cl)ccc1OC)c1ccccc1,-5.9,2.4,2.2,i,-2.2,-5.4,-10.0,-9.1,
O=S(=O)(c1cccc(F)c1)N1CCN(c2ncnc3scc(-c4ccc(F)cc4)c23)CC1,x,-11.7,-7.1,i,x,-20.6,-11.7,-28.9,
CCOc1ccc(N(CC(=O)Nc2cccc(OC)c2)S(=O)(=O)c2c(C)noc2C)cc1,2.7,-0.2,-6.5,i,-9.6,4.1,-9.6,-9.1,
COc1ccc(-n2nc(C)c3onc(C)c3c2=O)cc1,-6.4,3.2,0.7,i,-3.1,-8.5,-11.0,7.0,
